Vif A3G = inhibitors of Vif binding to APOBEC3G peptide, primary screen, biochemical, TR-FRET, GST-Vif 1-94, biotin-A3G peptide, dose response retest (AID 1117319) | Virion infectivity factor (Human immunodeficiency virus type 1 group M subtype B (isolate … | TR-FRET GST-Vif / biotin-A3G peptide binding; higher % means a stronger effect; test concentration not given here; strong numbers were not always called active | one-dose inhibition, %; IC50 in µM for titrated hits | hit rate 0.57% among 260,000;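 active = above the screen mean plus three standard deviations and confirmed in dose response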;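 note: Vif residues 1-94 fused to GST binding biotinylated APOBEC3G peptide 110-148; 0% = full assay without inhibitor and 100% = GST in place of GST-Vif; retest series ran down from 100 µM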
Ecoli growth = E. coli growth inhibition, primary screen, OD600 | OD600 absorbance (test concentration not listed) | Escherichia coli growth, 23 h; active compounds read low | hit rate 0.21% among 330,000;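 active = OD600 absorbance below the run mean of sample wells minus 3.6 SD, in any replicate, cut at about 0.56 in these data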;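 note: stock transfer was 300 nL into about 60 µL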
MLL AF4-AF9 inh = inhibitors of AF4 peptide binding to AF9, primary screen, biochemical, AlphaScreen, biotin-AF4 peptide, FLAG-AF9, single point | Protein AF-9 (Homo sapiens), P42568 | hit rate 0.47% among 350,000 | inhibition, % at 10 µM | AID 651704, 2012;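 active = every replicate reaching a set inhibition limit, whatever the replicate mean, cut at about 25% in these data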;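 note: 0% = plate neutral control median and 100% = total signal loss; the record names both 10 and 1 µM as test concentration; the first replicate is given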
Target sequence (P42568 whole entry, looked up): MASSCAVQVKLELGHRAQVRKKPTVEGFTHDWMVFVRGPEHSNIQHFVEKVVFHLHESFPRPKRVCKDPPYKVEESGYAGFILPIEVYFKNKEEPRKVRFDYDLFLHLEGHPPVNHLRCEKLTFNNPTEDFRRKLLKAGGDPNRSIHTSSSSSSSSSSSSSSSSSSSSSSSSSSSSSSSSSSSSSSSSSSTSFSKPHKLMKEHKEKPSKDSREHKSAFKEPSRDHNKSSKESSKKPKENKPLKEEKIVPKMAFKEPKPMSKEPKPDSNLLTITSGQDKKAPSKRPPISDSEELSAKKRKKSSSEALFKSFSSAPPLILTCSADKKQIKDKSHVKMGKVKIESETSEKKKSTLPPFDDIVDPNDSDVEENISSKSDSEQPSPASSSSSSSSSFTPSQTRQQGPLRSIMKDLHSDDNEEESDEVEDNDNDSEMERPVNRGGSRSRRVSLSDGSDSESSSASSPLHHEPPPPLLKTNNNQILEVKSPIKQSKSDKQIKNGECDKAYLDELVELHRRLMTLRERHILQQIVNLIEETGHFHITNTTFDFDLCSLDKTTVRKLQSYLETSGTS
HNF4A DNA FP = change in binding of human HNF4A to DNA, primary screen, biochemical, fluorescence polarization, FITC-DNA; Hepatocyte nuclear factor 4-alpha (Homo sapiens), P41235; 1 h; activity change, % at 10 µM; hit rate 0.3% among 360,000; in the data active = activity change above about 30%, passing the limit was not always enough;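 note: controls were the assay level and a saturating level of protein; the project sought stronger binding though the title names inhibitors; some compounds called inactive have numbers as strong as hits; positive values seem to mean higher polarization but the record does not say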
ALR inh = inhibitors of human ALR sulfhydryl oxidase, primary screen, biochemical, H2O2 detection, HRP-luminol luminescence, single point. purified ALR, DTT oxidation. inhibition, % (no concentration beside the values). hit rate 3.8% among 290,000. FAD-linked sulfhydryl oxidase ALR (Homo sapiens), P55789;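 active = mean and each replicate at 75% or more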;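 note: stock transfer was 7.5 nL into about 7.5 µL; 0% = neutral wells and 100% = wells with inactivated enzyme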
Target sequence (P55789 whole entry, looked up): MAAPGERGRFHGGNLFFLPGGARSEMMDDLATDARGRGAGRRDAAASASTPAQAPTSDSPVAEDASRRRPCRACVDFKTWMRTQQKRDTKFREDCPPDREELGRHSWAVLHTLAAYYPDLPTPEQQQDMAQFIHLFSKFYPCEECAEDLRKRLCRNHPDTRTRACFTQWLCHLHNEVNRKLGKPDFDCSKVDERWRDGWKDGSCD
FGF22 binding = binders of human FGF22 protein, primary screen, FGF22 synaptogenesis inhibitor project, biophysical, thermal shift, single point; hit rate 1.5% among 340,000; Fibroblast growth factor 22 (Homo sapiens), Q9HCT0; calls only at 9.99 µM; recombinant FGF22 thermal shift, SYPRO orange fluorescence; percent of sucrose octasulfate shift, DMSO zero;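 active = melting point raised past a set limit in the mean and every replicate; three in four hits are not shown here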
Target sequence (Q9HCT0 whole entry, looked up): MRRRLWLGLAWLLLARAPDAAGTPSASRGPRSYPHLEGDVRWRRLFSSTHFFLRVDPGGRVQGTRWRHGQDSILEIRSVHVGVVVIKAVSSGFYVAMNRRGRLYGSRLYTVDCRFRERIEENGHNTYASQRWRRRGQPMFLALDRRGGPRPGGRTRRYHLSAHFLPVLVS
Ecoli rRNA inh = reduced GFP signal of wild-type E. coli, primary screen, bacterial rRNA inhibitor project, GFP/RFP fluorescence, OD600, single point; E. coli WT GFP vs humanized-ribosome RFP mutants, 24 h; active compounds read low; DMSO median 0, no signal -100; GFP signal change (wild-type ribosome), % (concentration not given with the values); hit rate 1.6% among 350,000;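 active = significant combined selectivity score with lowered wild-type GFP, culture density cut under 30%, mutant RFP and density less affected; inactive = any of these conditions unmet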; note: one replicate is shown; some compounds called inactive have numbers as strong as hits
Ecoli rRNA inh OD600 = also measured in Ecoli rRNA inh; calls as there; OD600 change, %; measured here: OD600 growth;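 optical density of the mix in the first replicate; 0 = DMSO median and -100 = no signal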
Ecoli rRNA inh RFP = also measured in Ecoli rRNA inh; calls as there; RFP signal change, %; measured here: RFP humanized mutant strains;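 first replicate; 0 = DMSO median and -100 = no signal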
Active calls of the source: *.

How did FC(F)(F)c1cnc(Sc2nc3nccc(-c4ccc(Cl)cc4)n3n2)c(Cl)c1 do in these assays?
Vif A3G: 26.7%; Ecoli growth: 0.651; HNF4A DNA FP: -0.8; ALR inh: -2.5

How did Cc1cccc(C(=O)O/N=C2\CCCc3ccccc32)c1 do in these assays?
Vif A3G: 31.5%; HNF4A DNA FP: 2.1; ALR inh: -6.4; Ecoli rRNA inh: 7.7; Ecoli rRNA inh OD600: 1.9; Ecoli rRNA inh RFP: 1.3

What do the screens show for `CN(C)c1nc(N(C)C)nc(N(C#N)CCOc2ccccc2)n1`?
Vif A3G: 1.5%; Ecoli growth: 0.703; HNF4A DNA FP: -2.9; ALR inh: -2.2

Results for O=C(NCc1ccccc1)c1cc(=O)[nH]c2ccccc12 ?
Vif A3G: -3.9%; Ecoli growth: 0.667; HNF4A DNA FP: -3.2; ALR inh: -0.1

What do the screens show for `CN(CCCNC(=O)CSc1cc(=O)n(C)c2cc(Cl)ccc12)Cc1ccccc1`?
Ecoli growth: 0.7; MLL AF4-AF9 inh: 1.5; HNF4A DNA FP: 0.2; ALR inh: 8.1; FGF22 binding: inactive; Ecoli rRNA inh: 0.3; Ecoli rRNA inh OD600: -1.3; Ecoli rRNA inh RFP: 4.5

Results for CN(c1ccccc1)S(=O)(=O)c1ccc(NC(=O)C2CCCCC2C(=O)O)cc1 (centres undefined) ?
Vif A3G: 5.9%; Ecoli growth: 0.758; HNF4A DNA FP: -0.2; ALR inh: -2.7

What do the screens show for `Cc1c(N(C)C(=O)C2CCCN2S(=O)(=O)c2ccccc2)c(=O)n(-c2ccccc2)n1C` (centres undefined)?
Vif A3G: 5.3%; Ecoli growth: 0.652; MLL AF4-AF9 inh: -42.3; HNF4A DNA FP: 0.0; ALR inh: 0.9; FGF22 binding: inactive; Ecoli rRNA inh: 5.8; Ecoli rRNA inh OD600: 4.6; Ecoli rRNA inh RFP: -1.5

Results for C[C@@H]1CN([C@@H](C)CO)C(=O)Cc2cc(NS(=O)(=O)c3cccs3)ccc2O[C@H]1CN(C)Cc1ccc(Oc2ccccc2)cc1 ?
MLL AF4-AF9 inh: 2.5; FGF22 binding: inactive; Ecoli rRNA inh: 1.3; Ecoli rRNA inh OD600: -4.4; Ecoli rRNA inh RFP: 14.2

What do the screens show for `COC(=O)c1ccc(NC(=O)C2C3C=CC(C3)C2C(=O)O)cc1` (centres undefined)?
Vif A3G: -6.4%; Ecoli growth: 0.678; MLL AF4-AF9 inh: -2.8; HNF4A DNA FP: -2.6; ALR inh: -5.2; FGF22 binding: inactive; Ecoli rRNA inh: 9.2; Ecoli rRNA inh OD600: 21.0; Ecoli rRNA inh RFP: -2.3

Results for NC(COCc1ccccc1)c1csc(Nc2cc(NCCCO)ncn2)n1 (centres undefined) ?
MLL AF4-AF9 inh: 1.1; HNF4A DNA FP: 9.8; FGF22 binding: inactive; Ecoli rRNA inh: -3.4; Ecoli rRNA inh OD600: -1.7; Ecoli rRNA inh RFP: -1.2

What do the screens show for `Cc1cc(NC(=O)/C=C/c2ccc(Br)cc2)no1`?
Vif A3G: -5.3%; Ecoli growth: 0.68; HNF4A DNA FP: 1.9; ALR inh: -1.7

Results for CCc1ccc(NC2=NCC(=O)N2Cc2ccc3c(c2)OCO3)cc1 ?
Vif A3G: 6.5%; Ecoli growth: 0.727; HNF4A DNA FP: -2.1; ALR inh: -4.0

What do the screens show for `COc1ccc(S(=O)(=O)N2CCCCN3[C@H](C2)[C@@H](c2ccc(C#CC(C)C)cc2)[C@@H]3CO)cc1`?
MLL AF4-AF9 inh: -9.2; FGF22 binding: inactive; Ecoli rRNA inh: 1.8; Ecoli rRNA inh OD600: -20.6; Ecoli rRNA inh RFP: 0.1

How did Cc1cc(NC(=O)c2ccco2)c(=O)n(Cc2cccc(C(F)(F)F)c2)c1 do in these assays?
Ecoli growth: 0.705; MLL AF4-AF9 inh: 2.0; HNF4A DNA FP: 0.2; FGF22 binding: inactive; Ecoli rRNA inh: -5.6; Ecoli rRNA inh OD600: -10.5; Ecoli rRNA inh RFP: -3.2

What do the screens show for `CNC[C@H]1Oc2ccc(NS(=O)(=O)c3ccccc3)cc2CC(=O)N([C@@H](C)CO)C[C@H]1C`?
MLL AF4-AF9 inh: -2.7; FGF22 binding: inactive; Ecoli rRNA inh: 5.0; Ecoli rRNA inh OD600: 5.0; Ecoli rRNA inh RFP: 0.2

Results for CSCCC(NC(=O)c1ccccc1Br)C(=O)NCCCn1nc(C)cc1C (centres undefined) ?
Vif A3G: -6.3%; Ecoli growth: 0.635; MLL AF4-AF9 inh: -1.0; HNF4A DNA FP: -0.5; ALR inh: -1.7; FGF22 binding: inactive; Ecoli rRNA inh: 4.0; Ecoli rRNA inh OD600: -2.1; Ecoli rRNA inh RFP: 0.2

What do the screens show for `Cc1ccc(N2CC(C(=O)Nc3ccncc3)CC2=O)cc1` (centres undefined)?
Vif A3G: 7.1%; Ecoli growth: 0.696; HNF4A DNA FP: 1.9; ALR inh: 1.1

Results for NC(=O)C1CC(=O)N(c2ccc(OCc3ccc(F)cc3)cc2)C1 (centres undefined) ?
Ecoli growth: 0.707; MLL AF4-AF9 inh: 10.8; HNF4A DNA FP: 1.6; ALR inh: -2.9; FGF22 binding: inactive; Ecoli rRNA inh: 10.5; Ecoli rRNA inh OD600: 6.0; Ecoli rRNA inh RFP: 2.5

How did Cc1ccc(S(=O)(=O)N(C)C[C@@H]2OCCCC[C@H](C)Oc3ccc(NC(=O)c4ccccc4)cc3C(=O)N([C@H](C)CO)C[C@H]2C)cc1 do in these assays?
MLL AF4-AF9 inh: 0.1; FGF22 binding: inactive; Ecoli rRNA inh: -1.5; Ecoli rRNA inh OD600: 11.2; Ecoli rRNA inh RFP: 3.3

How did COC(=O)CSc1nc(N)c(C#N)c(C(C)C)c1C#N do in these assays?
Vif A3G: 3.7%; Ecoli growth: 0.695; HNF4A DNA FP: -0.7; ALR inh: -5.6

3 entries picked at random from the list so far:
What do the screens show for `CN(C)c1nc(N(C)C)nc(N(C#N)CCOc2ccccc2)n1`?
Vif A3G: 1.5%; Ecoli growth: 0.703; HNF4A DNA FP: -2.9; ALR inh: -2.2

What do the screens show for `COC(=O)c1ccc(NC(=O)C2C3C=CC(C3)C2C(=O)O)cc1` (centres undefined)?
Vif A3G: -6.4%; Ecoli growth: 0.678; MLL AF4-AF9 inh: -2.8; HNF4A DNA FP: -2.6; ALR inh: -5.2; FGF22 binding: inactive; Ecoli rRNA inh: 9.2; Ecoli rRNA inh OD600: 21.0; Ecoli rRNA inh RFP: -2.3

Results for C[C@@H]1CN([C@@H](C)CO)C(=O)Cc2cc(NS(=O)(=O)c3cccs3)ccc2O[C@H]1CN(C)Cc1ccc(Oc2ccccc2)cc1 ?
MLL AF4-AF9 inh: 2.5; FGF22 binding: inactive; Ecoli rRNA inh: 1.3; Ecoli rRNA inh OD600: -4.4; Ecoli rRNA inh RFP: 14.2

Next part.
What do the screens show for `OCCNc1nc(Nc2ccc(O)cc2)nc2ccccc12`?
Vif A3G: 5.7%; Ecoli growth: 0.622; MLL AF4-AF9 inh: 9.0; HNF4A DNA FP: -0.3; ALR inh: 98.8*; FGF22 binding: inactive; Ecoli rRNA inh: 0.2; Ecoli rRNA inh OD600: 28.6; Ecoli rRNA inh RFP: 0.2

How did COc1ccc(Cc2nc(-c3ccc(Cl)cc3)no2)cc1 do in these assays?
Vif A3G: 8.7%; Ecoli growth: 0.696; HNF4A DNA FP: 2.0; ALR inh: -1.9

Results for CCC(=O)N1CCC2(CC1)CN(C(C)=O)[C@@H](CO)c1[nH]c3cc(OC)ccc3c12 ?
MLL AF4-AF9 inh: -0.8; FGF22 binding: inactive; Ecoli rRNA inh: 5.6; Ecoli rRNA inh OD600: 8.0; Ecoli rRNA inh RFP: -4.4

What do the screens show for `Cc1ccc(-c2cnn(-c3ccccc3)c2N)cc1`?
Vif A3G: -10.1%; Ecoli growth: 0.616; MLL AF4-AF9 inh: -2.8; HNF4A DNA FP: -1.2; ALR inh: 0.8; FGF22 binding: inactive; Ecoli rRNA inh: -8.2; Ecoli rRNA inh OD600: -2.3; Ecoli rRNA inh RFP: -6.2

How did CC1OC(CCc2cccc(Cl)c2)Cc2[nH]c(=S)[nH]c(=O)c21 (centres undefined) do in these assays?
MLL AF4-AF9 inh: -2.4; HNF4A DNA FP: 6.4; FGF22 binding: inactive; Ecoli rRNA inh: -12.7; Ecoli rRNA inh OD600: -23.7; Ecoli rRNA inh RFP: -12.1

What do the screens show for `CNC(=O)C[C@H]1CC[C@H]2[C@@H](COc3ccc(NC(=O)c4ccccc4OC)cc3C(=O)N2C)O1`?
MLL AF4-AF9 inh: -0.6; FGF22 binding: inactive; Ecoli rRNA inh: -0.6; Ecoli rRNA inh OD600: -2.2; Ecoli rRNA inh RFP: -0.2

Results for Cc1ccc(O)c(-c2cc(C(F)(F)F)[nH]n2)c1 ?
Vif A3G: -5.9%; Ecoli growth: 0.654; HNF4A DNA FP: 2.9; ALR inh: 65.0

How did O=C(NCCN1CCOCC1)c1cc(-c2ccc(Cl)c(Cl)c2)on1 do in these assays?
Vif A3G: -10.9%; Ecoli growth: 0.669; MLL AF4-AF9 inh: 4.6; HNF4A DNA FP: 1.6; ALR inh: -10.7; FGF22 binding: inactive; Ecoli rRNA inh: 9.9; Ecoli rRNA inh OD600: 6.6; Ecoli rRNA inh RFP: -4.7

How did Nc1ccc(-n2nnnc2CN2CCOCC2)cc1 do in these assays?
Vif A3G: -10.1%; Ecoli growth: 0.665; HNF4A DNA FP: 5.8; ALR inh: -20.7

Results for CC(=O)Nc1ccc(S(=O)(=O)CCC(=O)O)cc1 ?
Vif A3G: -4.1%; Ecoli growth: 0.724; MLL AF4-AF9 inh: -23.9; HNF4A DNA FP: 0.7; FGF22 binding: inactive; Ecoli rRNA inh: 9.7; Ecoli rRNA inh OD600: 6.0; Ecoli rRNA inh RFP: 1.1

What do the screens show for `O=C(N[C@H]1CC[C@@H](CC(=O)N2CCN(c3ccccc3)CC2)O[C@@H]1CO)c1ccccc1`?
MLL AF4-AF9 inh: 2.5; FGF22 binding: inactive; Ecoli rRNA inh: -0.2; Ecoli rRNA inh OD600: 2.8; Ecoli rRNA inh RFP: -2.8

What do the screens show for `COc1ccc(NC(=O)N(C)C[C@@H]2Oc3ccc(NS(=O)(=O)c4ccc(Cl)cc4)cc3CC(=O)N([C@H](C)CO)C[C@@H]2C)cc1`?
MLL AF4-AF9 inh: 1.4; FGF22 binding: inactive; Ecoli rRNA inh: 0.0; Ecoli rRNA inh OD600: -0.2; Ecoli rRNA inh RFP: -2.8

Results for C[C@H](CO)N1C[C@H](C)[C@H](CN(C)Cc2ccc(Cl)c(Cl)c2)Oc2ccc(NC(=O)CCCCCC(=O)Nc3ccccc3N)cc2CC1=O ?
MLL AF4-AF9 inh: 0.3; FGF22 binding: inactive; Ecoli rRNA inh: -5.9; Ecoli rRNA inh OD600: -9.4; Ecoli rRNA inh RFP: 3.5

What do the screens show for `CC(Sc1nc(-c2ccccc2)cc(C(F)(F)F)n1)C(=O)Nc1sc2c(c1C(N)=O)CCC2` (centres undefined)?
Vif A3G: -24.1%; Ecoli growth: 0.677; HNF4A DNA FP: -1.4; ALR inh: -16.7

An excerpt, so the mix of outcomes need not match the whole.
